High-throughput results deposited in PubChem by Fisher Drug Discovery Resource Center.
NPYLR7 agonist = agonists of mosquito NPYLR7 receptor, primary screen, cell-based, Aedes aegypti, calcium fluorescence, mosquito biting behavior. Aedes aegypti neuropeptide Y-like receptor 7 (NPYLR7). HEK293T NPYLR7/Galpha15, GCaMP6s calcium fluorescence. activation, % at 10 µM. actives 0.15% (n = 270,000). AID 1259423, 2018; in the data active = activation above about 40%;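 also: 0% = vehicle and 100% = reference agonist at the receptor; some compounds past the cut are filed as inactive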
NPYLR7 agonist max-min = further read-out of NPYLR7 agonist, marked with its call; activation, %; measured here: Max-Min RFU normalised activation; some inactives read as strong as hits;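 span of the calcium signal over five minutes; 0% = vehicle and 100% = native peptide agonist; compound fluorescence can raise it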
Active calls of the source: *; & = joins results of further samples. These rows are one share of the data, so the mix of outcomes need not match the whole.

mol	NPYLR7 agonist	NPYLR7 agonist max-min
CCN(Cc1noc(C)n1)C(=O)c1ccc(Cn2nc(C)cc2C)cc1	10	8
O=C(CCNC(=O)c1ccccc1F)NCc1cn2c(n1)SCC2	10	4
COC(=O)C(c1ccc(F)cc1Cl)C1C=CC(NC(=O)c2scc(S(=O)(=O)C(C)C)c2Cl)C1 (stereo unspecified)	21	25
O=C(NCC1CCCO1)C(C1CCCC1)N1CCN(C(=O)c2ccco2)CC1 (stereo unspecified)	-7	-2
CCn1cncc1CNC(=O)CCc1nc(-c2ccccc2C)no1	1	1
Cc1ccc(CSc2nc3nc(C)cc(C)c3c(=O)[nH]2)cc1	2	2
C=CCOc1ccc(C=C2N=C(c3ccccc3I)OC2=O)cc1OC	-14	-19
O=S(=O)(Nc1cc2c(cc1Cl)OCCO2)c1cc(F)ccc1F	9	9
CCOC(=O)c1c(NC(=O)CCC(=O)OC)sc2c1CCC2	7	2
CSc1nnc(C)c(=O)n1COC(=O)c1ccc(F)cc1	3	3
C=CCn1c(CC(=O)Nc2nccs2)nnc1SCC(=O)N1CCN(C)CC1	3	-1
COc1ccc(N(CN2C(=O)c3cc(Cl)c(Cl)cc3C2=O)C(C)=O)cc1	0	-7
CN1CC(=O)N2CCN(Cc3ccc(Oc4ccccc4)nc3)CC2C1=O (stereo unspecified)	3	2
NC(=O)CC1CCN(Cc2coc(-c3ccc(Cl)cc3)n2)CC1	1	-1
CC(=O)NCCc1nc2ccccc2n1Cc1c(C)c(C)cc(C)c1C	-6	-7
CCOC(=O)N1CCN(C(c2ccccc2F)C2Sc3nc(C)nn3C2=O)CC1 (stereo unspecified)	-9	-10
COC(=O)c1c(C)c(C(=O)C(C)N(Cc2ccco2)C(=O)COCc2ccccc2)c(C)n1C (stereo unspecified)	-7	-5
CC(C)CN(Cc1cccc(OS(=O)(=O)c2ccc(F)cc2)c1)C(=O)c1ccc(F)cc1	-2	14
Cc1ncoc1C(=O)N1CCCN(CC2CC2)C(C(C)C)C1 (stereo unspecified)	6	4
Nc1nonc1NC(=O)NN=C1CCCC1	-1	-3
CCN(C(C)=O)c1nc(CN(C)C(C)c2ccc(Cl)cc2Cl)cs1 (stereo unspecified)	-3	-2
COc1cc(-c2nc(C=Nc3ccc(C(C)=O)cc3)c(O)o2)cc(OC)c1OC	-3	-4
CCNC(=O)c1csc(COc2cccc(C(F)(F)F)c2)n1	0	-7
O=C1N(c2ccccc2)C[C@@H]2C[C@@H](c3cccn3-c3nccs3)N3CCC[C@@]123	5	1
CC(=O)N1c2ccccc2C(N(C(=O)c2ccccc2F)c2ccccc2)CC1C (stereo unspecified)	-5	-6
CCCn1c(N)c(-c2nc(C(C)C)c(C(C)=O)s2)c(=O)n(CCC)c1=O	6	4
COc1cc(-c2nc3ccccn3c2NC(C)(C)CC(C)(C)C)ccc1OC(=O)c1cccc2ccccc12	14	19
CCCCC(=O)Nc1ccc(NC(=O)c2ccnc(C(C)C)n2)cc1C	-3	-4
O=[N+]([O-])c1ccc(S(=O)(=O)n2nc3ccccc3n2)cc1	-6	-9
CCC(C)c1nc(N2CCN(C(=O)NC3CCCCC3)CC2)c2c3c(sc2n1)CCCC3 (stereo unspecified)	-7	-6
CC(=O)N1CCN(C(=O)c2cc(S(=O)(=O)N(C)c3ccc(F)cc3)ccc2Cl)CC1	-4	-5
COc1c(F)cc(CN(C)Cc2cnn(C)c2C)cc1Cl	1	0
COc1ccc(Cl)cc1Cn1c(C)c(C(=O)NCc2cccc(Cl)c2)sc1=O	17	12
CCOC(=O)C1(CCCc2ccccc2)CCN(C(=O)c2ccoc2)CC1	-8	-10
COCCn1c(SCc2csc(Nc3ccccc3)n2)nc2ccccc2c1=O	-1	4
O=C(CNC(=O)c1ccc(Br)o1)NC1CCCCCC1	0	2
CCc1ccc(C(=O)CSc2nnc(N3CCOCC3)n2Cc2ccco2)cc1	-1	23
O=C(CCc1ccccc1)N(Cc1cccnc1)c1nc2cc3c(cc2s1)OCCO3	-6	1
Cc1ccc(C(=O)Oc2ccccc2/C=N\NC(N)=S)cc1	12	9
Cc1ccc(NC(=O)CN(C)Cc2ccco2)cc1C	8	2

Complete entries, quoted from the list. Order of values: NPYLR7 agonist	NPYLR7 agonist max-min
COc1ccc(Cl)cc1Cn1c(C)c(C(=O)NCc2cccc(Cl)c2)sc1=O is listed as 17	12
CCc1ccc(C(=O)CSc2nnc(N3CCOCC3)n2Cc2ccco2)cc1 is listed as -1	23
CCOC(=O)C1(CCCc2ccccc2)CCN(C(=O)c2ccoc2)CC1 is listed as -8	-10
COCCn1c(SCc2csc(Nc3ccccc3)n2)nc2ccccc2c1=O is listed as -1	4
O=C(CNC(=O)c1ccc(Br)o1)NC1CCCCCC1 is listed as 0	2

Additional entries follow.
mol	NPYLR7 agonist	NPYLR7 agonist max-min
COc1ccc(S(=O)(=O)NCCc2csc3nc(-c4ccc(F)cc4)nn23)cc1C	-8	-8
CCOC(=O)c1cc(C(C)(C)C)n(C2CCN(C(=O)Cc3ccsc3)CC2)n1	-2	-8
O=C(Cc1ccc(-c2ccccc2)cc1)N(C1CC1)C1CCS(=O)(=O)C1 (stereo unspecified)	-7	-8
COc1cc2c(cc1CN1CCCN(c3ccnc(C)c3)CC1)OCO2	3	2
CN(C)C(=O)CSCC(=O)O	12	19
CCCC(Nc1ncc(C)c(N(C)C)n1)c1nccn1C (stereo unspecified)	0	7
COc1cn(CC(=O)NCCc2ccccc2)c(CSc2nc(C)cs2)cc1=O	-7	-11
CCCn1c(O)c(N=NC(=O)c2ccccc2N)c2ccccc21	-7	-15
CCOc1ccc(C(=O)C(C)Oc2cc(OC)ccc2C(N)=O)cc1 (stereo unspecified)	1	2
CCOC(=O)c1ccc2c(c1)nc(SCc1ccc(C(F)(F)F)cc1C(F)(F)F)n2Cc1ccccn1	-5	-6
COc1ccccc1Cn1cc(C(=O)NCc2cccc(C(F)(F)F)c2)sc1=O	12	5
Cc1cc(C)nc(SCc2cc(=O)c(OC(=O)Cc3ccc(Cl)cc3)co2)n1	-10	-9
CCN(CC)S(=O)(=O)c1ccc(OC)c(N2CCN(S(=O)(=O)c3ccccc3C#N)CC2)c1	7	5
O=c1oc2ccccc2c(N2CCC(c3ccccc3)C2)c1[N+](=O)[O-] (stereo unspecified)	1	-1
COc1ccc(C)c2sc(N(Cc3cccnc3)C(=O)c3ccc(S(=O)(=O)N(C)C)cc3)nc12	-13	-11
COc1ccc(C(O)=C2C(=O)C(=O)N(CCN3CCNCC3)C2c2ccc(OC)c(OC)c2)cc1 (stereo unspecified)	-4	-9
CCS(=O)(=O)c1ccc(C(=O)N(CCCN(C)C)c2nc3c(OC)ccc(C)c3s2)cc1	2	-2
CN(Cc1ccc(S(C)=O)cc1)c1ccccc1S(C)(=O)=O (stereo unspecified)	3	28
CC(C)CC(C)NC(=O)c1ccc(-n2nc(-c3cccc(C(F)(F)F)c3)cc2N)cc1 (stereo unspecified)	11	4
CCOc1cc(C2Nc3ccccc3N=C3CC(c4ccccc4)CC(=O)C32)cc([N+](=O)[O-])c1O (stereo unspecified)	2	0
CCc1cc(C#N)c(NC(C)=O)s1	-5	-6
CCOC(=O)NN=C(C)c1ccc(C)o1	0	0
CCn1ccnc1-c1c(-c2ccccc2)ncn1CCN1CCCCC1CO (stereo unspecified)	4	1
CCOC(=O)C1(Cc2ccccc2C)CCCN(C(=O)c2ccc(CSC)o2)C1 (stereo unspecified)	13&-3	3&-8
CCc1nc2n(n1)C(=O)C(C(c1cccc(Br)c1)N1CCOCC1)S2 (stereo unspecified)	-3	-10
CC(C)Cc1nc(CS(=O)(=O)C/C=C/c2ccccc2)no1	25	24
COCC(=O)N1CCCN(Cc2cc3c(cc2OC)OCCCO3)CC1	2	-10
CCOC(=O)N1CCN(C(=O)c2csc3nc(-c4cccc(Cl)c4)cn23)CC1	19	8
Cc1nn(-c2ccc(N3CCCCC3)nn2)c2c1C(c1ccc(OC(C)C)cc1)CC(=O)N2 (stereo unspecified)	1	-1
O=C(CN1CCc2sccc2C1c1ccc(Cl)cc1)N1CCCN(C(=O)c2cccc([N+](=O)[O-])c2)CC1 (stereo unspecified)	11	0
CC(C)CCNC(=O)CCc1nnc2n(CCCOC(C)C)c(=O)c3ccccc3n12	-3	-4
COc1cc2c(cc1OC)CN(C1CCCN(C(=O)c3cccc(Br)c3)C1)CC2 (stereo unspecified)	24	33
CC(=O)NCc1nnc2n1CCNCC2	3	-2
COc1ccc(/C=C/C(=O)NCCCOc2cccc([N+](=O)[O-])c2)cc1	-2	-10
Cc1ccc(NC(=O)CNCCNc2ncccc2C)c(C)c1	5	4
O=C(Nc1ccccc1)N(Cc1ccc(F)cc1)C1CC1	-8	-9
COc1cccc(C(CN2CCN(C(=O)c3ccc(OC)c(F)c3)CC2)OCc2cccc(Cl)c2)c1 (stereo unspecified)	-5	7
CC(=O)c1c(SCc2ccccc2Cl)nc(=O)[nH]c1C	9	5
O=S1(=O)CCC(Nc2nc(-c3cccnc3)nc3scc(-c4ccccc4)c23)C1 (stereo unspecified)	-7	0
C[C@]12CCC(=O)C=C1CCC[C@@H]2OC(=O)Nc1ccccc1	1	7
Cc1nccn1-c1ccc(NC(=O)C2CCCN(Cc3ccc4c(c3)CCO4)C2)cc1 (stereo unspecified)	7&-8	8&-10
CC(C)c1ncc(C(=O)N2CCC3(CCNCC3)CC2)cn1	2	-3
O=C(c1ccccc1-c1ncc[nH]1)N1CC(=O)N(C2CCCCC2)CC(OCc2ccccn2)C1 (stereo unspecified)	8	1
CSCCC(C(=O)O)N1C(=O)C2C3CC(C(Br)C3Br)C2C1=O (stereo unspecified)	14	5
Cc1ccc(C(=O)N2[C@H]3CCNC[C@@H]2CC3)cc1N1CCNC1=O	7	4
Cc1ccccc1C1(O)CCN(C/C=C/c2ccco2)C1 (stereo unspecified)	-1	-4
Cc1c(NCC2CCCO2)nn2c(C(F)(F)F)nnc2c1C (stereo unspecified)	-5	-6
CC(C)C(=O)N1CCOCC2(CN(Cc3ccc(N(C)C)nc3)CCO2)C1 (stereo unspecified)	10	7
CCCCN(CCC(=O)N1CCOCC1)c1nc(Cc2cccc(OC)c2)ns1	-6	1
O=C(N1CCOC(CCCc2ccccc2)C1)C1(Cn2cccn2)CC1 (stereo unspecified)	5	1

Continued.
mol	NPYLR7 agonist	NPYLR7 agonist max-min
CC(C)CN(Cc1nccn1Cc1c(F)cccc1Cl)C(=O)CCc1ccccc1	21	25
COc1ccc(-c2cc(C(=O)N(CCC#N)Cc3cccnc3)c(C)n2-c2ccccc2Cl)cc1	-4	6
C=C(CC(=O)OC)C(=O)Nc1ccc(OC)nc1	-9	-12
O=C(Nc1cccc(Cl)c1)N1CCN(C(C(=O)N2CCCC2)C2CCCC2)CC1 (stereo unspecified)	-9	-3
CCNC(=O)c1nn(-c2ccc(F)cc2)c(=O)n(Cc2ccc(C(F)(F)F)cc2)c1=O	15	12
CC1CCC(NC(=O)c2ccc(Br)o2)CC1 (stereo unspecified)	-1	0
CCCCc1ccc(C(=O)N2CCc3nc(Cc4cccc(F)c4)nc(N4CCOCC4)c3C2)cc1	-3	4
O=C(COCc1ccccc1)N1CCN(c2nccc(-c3cccc(C(F)(F)F)c3)n2)CC1	3	0
O=C(CCC1CCN(C(=O)c2ccoc2)CC1)N1CCC(Cc2ccccc2)CC1	8	4
CC(C)COC(=O)CNc1n[nH]c(=O)[nH]c1=O	-2	-5
COc1cc(Nc2cc3c(cn2)cc(-c2cnn(C)c2)n3C)cc(C(F)(F)F)c1	14	30
Cn1ccnc1SCc1cc(=O)c(OC(=O)c2cccc([N+](=O)[O-])c2)co1	-6	-8
N#Cc1c(N)n(-c2ccc(I)cc2)c2nc3ccccc3nc12	9	14
COc1cccc(Cl)c1-c1ccc2nc(C(C)O)[nH]c2c1 (stereo unspecified)	-1	-6
CCCN1C(=S)NC(c2cccc(Cl)c2)C(C(=O)NC(C)(C)C)=C1C (stereo unspecified)	2	0
COc1ccc(Cl)cc1CC1(C)C(=O)Nc2ccc(-c3ccccc3OC)cc21 (stereo unspecified)	0	-1
Cc1cccc(OCC(=O)N2CCOC(c3ccccc3)C2)c1 (stereo unspecified)	25	30
CN(C)c1ccc(/C=C/C=N\Nc2nc(N3CCOCC3)nc(N3CCOCC3)n2)cc1	0	-9
Cc1cccc(N2CCN(CCNC(=O)c3ccc(F)cc3)CC2)c1	2	2
Cc1c(C(=O)NCc2cccnc2Oc2ccccc2F)cnc2ccnn12	0	23
CC1CCCN(S(=O)(=O)c2cccc(C(=O)Nc3sccc3C#N)c2)C1 (stereo unspecified)	0	-1
CCC(=O)c1cc(Br)ccc1OCc1ccc(C)cc1	-1	-3
